High-throughput results deposited in PubChem by ICCB-Longwood Screening Facility, Harvard Medical School.
Ab BasE inh: blocks the Acinetobacter baumannii siderophore enzyme BasE; purified BasE, fluorescence polarization binding displacement; inhibition, % (test concentration not listed); 0.1% of 84,000 active; AID 485350;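 active = both replicates above 25% with normal brightness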;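 also: 0% = negative plate control signal and 100% = positive plate control signal; stock transfer was 100 nL into about 30 µL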
KSHV LANA nucl: LANA-nucleosome interaction inhibition; z-score (concentration not given with the values); FITC-LANA1-23 / chicken nucleosome fluorescence polarization; hits give low values; 0.3% of 51,000 active;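 active = both repeat wells score below -2 in polarization z-score versus plate sample wells, excluding overly bright wells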;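 also: 100 nL library stock added to about 30 µL; numbers are from one replicate; some results filed as inactive read as strong as hits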
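Assay system: FITC-LANA peptide and chicken nucleosomes; input: 240 nM purified chicken nucleosomes (480 nM peptide binding sites), final; also added: 50 nM FITC-LANA1-23 probe; medium: TEN-BT buffer, pH 7.5; doses: pin-transferred compound, 100 nL; times: 10–45 min, room temperature; technique: fluorescence polarization; replication: duplicates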
Starred values were filed as active, the others as inactive; . = no result given; & = joins results of further samples. Not all compounds are listed; count on the stated rates, not on these rows.

molecule,Ab BasE inh,KSHV LANA nucl
CC(C)(O)C#Cc1ccc(C(=O)NCCC(=O)O)s1,3.4,1.1
CC(C)CCn1c(=O)c2ccccc2n2c(CN(C)CCOc3ccc(Cl)cc3)nnc12,2.1,.
CC(C)c1nn(-c2ccc(C(F)(F)F)cn2)c(=O)o1,4.9,-0.085
Cn1c2ccccc2c2cc(CC(N)=O)ccc21,2.4,-1.6
COC(=O)c1[nH]c(=O)c2ccccc2c1OCc1ccccc1,0.2,.
CN(C)C=NC(=S)c1sccc1CSc1ccc(Cl)cc1,-1.1,.
CC1CCCCC1NC(=O)Cn1ccc2ccccc21 (stereo not given),3.5,.
Cc1onc(-c2c(Cl)cccc2Cl)c1C(=O)n1c(C)nc2ccccc21,1.6,0.5
COc1ccc(N/C=C(\C#N)C(N)=S)cc1,-1.1,1.3
O=C(NCc1cccnc1)c1cccn2c(=O)c3ccc(Cl)cc3nc12,4.1,-0.6
N#CCSc1nc2c(n1-c1ccccc1)CCCC2,-0.3,.
O=C(COCc1cc(-c2ccco2)on1)N1CCc2ccccc2C1,-2.1,0.087
COC(=O)CC1COc2ccccc2N1C(=O)/C=C/c1ccccc1 (stereo not given),.,0.43
Cc1ccccc1NC(=O)C(C)N(c1ccccc1)S(C)(=O)=O (stereo not given),2.5,-0.49
O=C(CSc1nnc(C2CC2)n1Cc1ccco1)c1cccc(Cl)c1,0.4,.
O=S1(=O)C=C(SCCN2CCOCC2)c2ccccc21,0.4,.
O=C(O)c1ccccc1S(=O)(=O)N1CCCCC1,1.9,.
N#CCC(=O)NCc1ccncc1,2.6,-0.3
CCCN1CCN(Cc2ccc(OCC(=O)Nc3ccc(Br)cc3)c(OC)c2)CC1,-2.7,.
CCOC(=O)c1nn(-c2ccc(Cl)cc2Cl)c(=N)c(C#N)c1C,-33,2.4
O=C(c1ccc2ncsc2c1)N1CCCC1c1cccs1 (stereo not given),-0.4,.
CN(C)C(=O)CSc1nnc(-c2cccnc2)n1-c1ccccc1,4.6,-0.35
N#CCN(CC#N)C(=O)N1CCOCC1,2.6,0.75
O=C(OC1OCCOC1OC(=O)C1CCCCC1)C1CCCCC1 (stereo not given),2.3,0.45
COC(=O)c1c(C)[nH]c(C)c1/C=N/OC(=O)c1ccco1,-0.6,0.3
COC(=O)c1ccc(Oc2c(F)c(F)nc(F)c2F)cc1,1.4,0.15
Oc1ccc(-c2nc(-c3cccs3)c(-c3cccs3)[nH]2)cc1,0.3,-0.23
Cc1c(Cl)cccc1NC1=CC(=O)CCC1,4.0,0.11
CCN1C(=O)C(Cc2nc3ccccc3c(=O)[nH]2)c2ccccc21 (stereo not given),0.3,0.41
CCOC(=O)c1sc(N)c(C#N)c1CSc1nc2ccc(OCC)cc2[nH]1,-5.2,.
COc1ccc(CN2CCCN(S(=O)(=O)c3ccc(Br)cc3)CC2)cc1,1.7,-0.47
CC1(C)OC(c2ccccc2)=C/C(=C/C=C(C#N)C#N)O1,-8.3,2.2
Cc1nnc(SC(C)C(=O)Nc2ccc(Cl)cn2)s1 (stereo not given),1.2,.
C#CCSc1nc2ccccc2[nH]1,0.8,0.93
Cc1nnc(Nc2ccc(N3CCCCC3)cc2)[nH]c1=O,-1.1,0.39
Cc1cnc(NC(=O)CSCc2nc3scc(-c4cccs4)c3c(=O)[nH]2)s1,1.8,.
Cc1cc(C)nc(Nc2n[nH]c(-c3cccnc3)n2)n1,27*,-0.46
CCN1OCN(c2nc(N(C)C)nc(N(C)C)n2)C1=N,1.5,.
N/C(CN1CCCCC1)=N\O,0.5,.
CCOC(=O)c1c(CN2CCN(c3ccccc3)CC2)oc2cc(Br)c(OC(C)=O)cc12,0.5,-0.38
CCN(C(=O)c1cccc(OC)c1)C1CCS(=O)(=O)C1 (stereo not given),2.1,-1.5
COc1ccc(C(=O)CN2CCN(C(=O)CC(C)C)CC2)cc1,-0.7,-0.055
CCOC(=O)/C(=N\Nc1ccccc1Cl)N(C)C1CCS(=O)(=O)C1 (stereo not given),-0.2,.
CN1CCC(N(C)CC(O)COC2CCCc3ccccc32)CC1 (stereo not given),-0.5,.
Cc1cccc(N2CCN(CCNC(=O)C3CCN(c4nc5cccnc5s4)CC3)CC2)c1C,5.1,-0.54
CCc1ccc2c(O)c3c(cc2c1C(=O)OC)C(=O)c1c(O)ccc(O)c1C3=O,-1.3,0.74
O=S(=O)(c1ccc(Cl)cc1)N1CCCC1c1cccs1 (stereo not given),0.7,-0.097
COc1ccc2cc3c(N)nn(C(=O)CN4CCOCC4)c3nc2c1,1.9,0.77
O=C(NCC1CC1)Nc1cccs1,3.2,0.18
CS(=O)(=O)Nc1ccc(/C(N)=N/OC(=O)c2ccc(Cl)cc2)cc1,-0.4,-0.41
Cc1ccccc1N1CC23C=CC(O2)C(C(=O)OC(C)C)C3C1=O (stereo not given),1.3,-0.39
CN(C)S(=O)(=O)c1cccc(C(=O)N2CCC(C(N)=O)CC2)c1,-0.6,.
Oc1ccc2ccccc2c1Sc1nnnn1-c1ccccc1,-0.4,.
COc1cccc(-n2nc(C(=O)N3CCC(C(N)=O)CC3)c3ccccc3c2=O)c1,0.6,0.52
O=C(CC(C(=O)O)C1CCCO1)NC1CCCCC1 (stereo not given),2.3,0.29
O=C(C1CCCCC1)N1CCN(C(=O)C2CCCCC2)CC1,1.4,0.59
COC(=O)C(C)Sc1ncc(-c2ccccc2)nn1 (stereo not given),-1.8,-0.07
CCCOc1ccc(N)cc1N,0.3,.
C=CCN(CC(=O)Nc1ccc2c(c1)OCO2)S(=O)(=O)c1ccccc1F,1.6,.
COc1ccc(-c2nnc(SCC(=O)NCC(F)(F)F)o2)cc1,-1.1,.

Next records
molecule,Ab BasE inh,KSHV LANA nucl
CC12CCCCC1(O)N(O)C(C(=O)c1ccccc1)=N2 (stereo not given),3.0,.
CCn1cc(CN(C)C(=S)Nc2ccc(OC)c(OC)c2)c(C)n1,0.0,-0.53
CC(C)N(C(=O)Cn1ccnc1)c1ccccc1,0.0,-0.41
CC(C)NC(=S)Nc1cccc2cnccc12,3.9,.
CC(=O)Nc1ccc(-c2nn[nH]n2)cc1,1.4,-0.26
O=C1CCCN=C(Nc2ccc(F)c(Cl)c2)S1,-1.4,.
N/N=C(\C(=O)O)c1ccccc1N,3.0,.
C[C@H](C(=O)O)c1cccc(C(=O)c2ccccc2)c1,.,0.39
CCCc1c(C(=O)NNc2ccc(C)cc2)cnn1-c1ccccc1,2.0,0.5
COC(=O)/C(C#N)=C\C=C\c1ccccc1,-1.3,-0.3
CCOc1cc(CN2CCN(CC(=O)N3CC(C)CC(C)C3)CC2)cc(Br)c1OC (stereo not given),-0.2,.
CCNC(=O)NCc1nc(-c2ccccc2)no1,-0.1,-0.62
O=S(=O)(Nc1ccc2oc3c(c2c1)CCCC3)c1ccc(F)cc1,-1.7,-0.49
CCOC(=O)c1cc(O)c(C(=O)OCC)s1,-0.6,.
N#Cc1cccc(C(=O)OCc2cc(=O)oc3cc(O)ccc23)c1,0.0,.
CCOC(=O)c1cnn(-c2nc3ccccc3n2C)c1/N=C/N(C)C,-0.5,.
N/N=C1\CCCc2c1[nH]c1ccc(C(=O)NN)cc21,2.8,.
O=C(Oc1cccc2cccnc12)N1CCCCCC1,1.4,.
N#CCc1nc(=O)c2ccccc2s1,1.4,.
Nc1c(-c2cccc(C(F)(F)F)c2)cnn1-c1ccccc1,.,-1.2
CNC(=S)Nc1cnn(Cc2cccc3ccccc23)c1,-1.7,0.093
Cc1ccc(CCNC(=O)C(C)c2c(C)n[nH]c2C)cc1 (stereo not given),1.1,-0.98
CC(=O)Nc1ccc(OCC(O)CNC(C)C)cc1 (stereo not given),1.0,0.64&-0.12
COC(=O)NN1C(=O)c2ccccc2C1=O,3.3,-1.7
Cc1cc(C)c2c(n1)sc1c(=O)n(CC(=O)c3ccccc3)cnc12,2.8,.
CCOC(=O)c1[nH]c(C(=O)O)c(CCC(=O)OC)c1C,0.1,1.1
CCn1nc(C(=O)Nc2nccs2)c2ccccc2c1=O,3.5,.
O=C(N/N=C/c1ccsc1)C1CC1,-1.0,.
Cc1sc2ncn(CC(=O)N(C)Cc3ccc(Br)s3)c(=O)c2c1C,2.9,.
Oc1ccc(OCc2ccccc2)cc1,18&7.9,-0.89&0.37
O=C(CSc1nnc(-c2sc3ccccc3c2Cl)o1)NCC(F)(F)F,-0.4,.
O=C(NCn1ccc(=O)[nH]c1=S)c1ccccc1,2.7,.
O=C1C(C=Nc2ccccc2O)=C(O)c2ccccc21,1.1,.
CSc1ccc(/C=c2\s/c(=C(/C#N)C(=O)N3CCN(C)CC3)n(-c3cccc(C)c3)c2=O)cc1,3.3,.
Cc1[nH]c(=O)c(C#N)c(C)c1CCC(=O)N1C(=NCc2ccccc2)SCC1(C)C,-0.7,.
O=C(COC(=O)c1ccc(-c2nnc(-c3ccccc3)o2)cc1)c1ccc(F)cc1,1.5,.
N#Cc1ccc(COC(=O)CSC(=S)N2CCOCC2)cc1,0.2,.
NC(=O)C1CCCN(C(=O)CCCSc2nc3ccccc3s2)C1 (stereo not given),0.8,.
Cc1ccc(S(=O)(=O)c2nc(-c3ccccc3)oc2N2CC(C)OC(C)C2)cc1 (stereo not given),-1.8,.
CN(C)S(=O)(=O)Nc1ccc(Cc2ccncc2)cc1,3.5,-0.91
Cn1c(O)c(N=NC(=S)Nc2ccccc2)c2ccccc21,-2.2,1.6
N#Cc1ccc(CONC(=O)c2cccs2)cc1,4.2,.
CC(N)C(c1ccccc1)N1CCOCC1 (stereo not given),-0.1,-0.12
C=CCn1c(SCC(=O)c2cccs2)nc2scc(-c3ccccc3)c2c1=O,-1.9,.
CN(C(=O)c1ccccc1)C(=O)N(C)C(=O)c1ccccc1,-0.5,.
CCS(=O)(=O)c1ccc(O)c(N=Cc2ccc(C)o2)c1,-8.9,.
O=C(CCN1C(=O)COc2ccccc21)NCc1ccc(F)cc1Cl,1.4,0.15
CCn1c(SCc2nc3ccccc3c(=O)[nH]2)nnc1C(C)NC(=O)c1ccccc1 (stereo not given),-5.1,-0.026
O=C(N/N=C/c1ccco1)c1n[nH]c2c1CCC2,-2.3,-0.19
CC(=O)Nc1ccc(OC(=O)c2cccnc2)cc1,-2.8,0.22
COC(=O)/C=c1\sc2nc3cc(Cl)c(Cl)cc3n2c1=O,-0.6,.
O=C(CSc1ncc(-c2ccc(Br)cc2)[nH]1)N(Cc1ccco1)CC(F)(F)F,0.6,.
O=C1N=c2ccccc2=C1c1sc(=S)[nH]c1O,2.1,0.7
COC(=O)c1ccccc1S(=O)(=O)N1CCC(C(=O)Nc2nnc(C)o2)CC1,-1.2,.
CC(C)(C)/C=N/NS(=O)(=O)c1ccc(-c2ccccn2)s1,0.9,-0.5
CCOC(=O)CCn1nc(-c2ccc(Cl)cc2)cc1N,3.8,0.47
N#Cc1ccc(C=Nc2cccc(C(N)=O)c2)cc1,-1.3,1.5
O=C(COc1ccccc1)Nc1ccc2c(c1)C(=O)NC2=O,7.5,-0.35
CCCCc1nnc(NC(=O)C=C(C)C)s1,-1.6,-0.41
COC(=O)C1=C(N)OC2=C(C(=O)CCC2)C1c1ccc(OC)cc1 (stereo not given),-0.6,2.5
COc1ccc2c(c1OC)C(=O)N(c1ccc(O)cc1)C2,-0.9,.
CC(C)C(=O)Nc1nncs1,1.0,-0.05
CSCCC(C(=O)OC1CCOC1=O)N1C(=O)c2ccccc2C1=O (stereo not given),-2.0,.

An excerpt from above in order of length of the SMILES, smallest number first.
molecule,Ab BasE inh,KSHV LANA nucl
O=C1N=c2ccccc2=C1c1sc(=S)[nH]c1O,2.1,0.7
CSCCC(C(=O)OC1CCOC1=O)N1C(=O)c2ccccc2C1=O (stereo not given),-2.0,.
O=C(CSc1ncc(-c2ccc(Br)cc2)[nH]1)N(Cc1ccco1)CC(F)(F)F,0.6,.

Rewritten with two lines to a compound: five of the compounds above
The line under a structure holds: Ab BasE inh | KSHV LANA nucl
- CC12CCCCC1(O)N(O)C(C(=O)c1ccccc1)=N2 (stereo not given)
    3.0 | .
- CCn1cc(CN(C)C(=S)Nc2ccc(OC)c(OC)c2)c(C)n1
    0.0 | -0.53
- CC(C)N(C(=O)Cn1ccnc1)c1ccccc1
    0.0 | -0.41
- CC(C)NC(=S)Nc1cccc2cnccc12
    3.9 | .
- CC(=O)Nc1ccc(-c2nn[nH]n2)cc1
    1.4 | -0.26
